Bioassay records deposited in PubChem BioAssay by several laboratories.
Ecoli rRNA inh: inhibitors of bacterial rRNA selective over humanized ribosomes; E. coli WT GFP vs humanized-ribosome RFP mutants, fluorescence, 24 h; active compounds read low; DMSO median 0, no signal -100; GFP signal change (wild-type ribosome), % (concentration not given with the values); 350,000 tested, 1.6% active; AID 720706;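 active = significant combined selectivity score with lowered wild-type GFP, culture density cut under 30%, mutant RFP and density less affected; inactive = any of these conditions unmet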; also: one replicate is shown; some compounds called inactive have numbers as strong as hits
FGF22 binding: shifts melting point of recombinant human FGF22 | Q9HCT0 | recombinant FGF22 thermal shift, SYPRO orange fluorescence; percent of sucrose octasulfate shift, DMSO zero | calls only at 9.99 µM | 340,000 tested, 1.5% active | AID 651658;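 active = melting point raised past a set limit in the mean and every replicate; three in four hits are not shown here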
Target sequence (Q9HCT0 whole entry, looked up): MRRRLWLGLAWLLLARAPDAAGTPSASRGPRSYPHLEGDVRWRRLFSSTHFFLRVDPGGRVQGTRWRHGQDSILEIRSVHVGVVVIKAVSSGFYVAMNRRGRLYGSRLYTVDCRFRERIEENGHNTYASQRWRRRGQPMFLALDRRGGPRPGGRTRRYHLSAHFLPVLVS
E coli growth: blocks Escherichia coli growth | OD600, 23 h; active compounds read low | OD600 absorbance (concentration not given with the values) | 330,000 tested, 0.21% active | AID 1053175;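 active = OD600 absorbance below the run mean of sample wells minus 3.6 SD, in any replicate, cut at about 0.56 in these data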;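 also: stock transfer was 300 nL into about 60 µL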
UCH37 DUB inh: human UCH37 deubiquitinating enzyme inhibition. inhibition, % (concentration not given with the values). 330,000 tested, 0.33% active. purified proteasome/UCH37, Ub-AMC cleavage fluorescence. AID 588478. Q9Y5K5;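 active = mean of two replicates above 20%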;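 also: 0% = compound-free wells with enzyme and 100% = wells lacking proteasome; stock transfer was 100 nL into about 20 µL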
Target sequence (Q9Y5K5 whole entry, looked up): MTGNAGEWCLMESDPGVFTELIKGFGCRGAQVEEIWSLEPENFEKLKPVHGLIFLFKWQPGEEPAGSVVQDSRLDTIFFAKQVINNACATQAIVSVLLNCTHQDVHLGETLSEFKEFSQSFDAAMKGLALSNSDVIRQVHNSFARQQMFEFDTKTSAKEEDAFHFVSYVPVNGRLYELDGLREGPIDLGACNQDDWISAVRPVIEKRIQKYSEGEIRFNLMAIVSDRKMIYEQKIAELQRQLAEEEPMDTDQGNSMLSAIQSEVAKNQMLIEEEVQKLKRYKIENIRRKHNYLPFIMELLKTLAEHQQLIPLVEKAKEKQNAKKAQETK
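Schedule: 30 min plus 25 min, room temperature / Material: human UCH37 within purified proteasomes / Technique: AMC fluorescence intensity at 355/460 nm / Buffer or medium: pH 7.4 Tris-HCl (50 mM) with ovalbumin, ATP-MgCl2, DTT / Controls: wells without proteasome as full block, compound-free enzyme plus substrate as uninhibited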
T cruzi inh: blocks replication of Trypanosoma cruzi; T. cruzi beta-gal in NIH3T3, luminescence, 90 h; inhibition, % (concentration not given with the values); 300,000 tested, 1.4% active; AID 1885;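 active = mean inhibition across valid replicates above about 55%, limit read from the data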;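 also: signal also drops with host cell toxicity which is not excluded here; 0% = plate median of DMSO wells and 100% = zero luminescence signal; higher percent means less beta-gal luminescence so fewer parasites; stock transfer was 50 nL into about 50 µL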
AF4-AF9 inh: MLL-AF4/AF9 protein interaction inhibition | P42568 | AlphaScreen, biotin-AF4 peptide binding to FLAG-AF9 | inhibition, % at 10 µM | 350,000 tested, 0.47% active | AID 651704;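 active = every replicate reaching a set inhibition limit, whatever the replicate mean, cut at about 25% in these data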;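 also: 0% = plate neutral control median and 100% = total signal loss; the record names both 10 and 1 µM as test concentration; the first replicate is given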
Target sequence (P42568 whole entry, looked up): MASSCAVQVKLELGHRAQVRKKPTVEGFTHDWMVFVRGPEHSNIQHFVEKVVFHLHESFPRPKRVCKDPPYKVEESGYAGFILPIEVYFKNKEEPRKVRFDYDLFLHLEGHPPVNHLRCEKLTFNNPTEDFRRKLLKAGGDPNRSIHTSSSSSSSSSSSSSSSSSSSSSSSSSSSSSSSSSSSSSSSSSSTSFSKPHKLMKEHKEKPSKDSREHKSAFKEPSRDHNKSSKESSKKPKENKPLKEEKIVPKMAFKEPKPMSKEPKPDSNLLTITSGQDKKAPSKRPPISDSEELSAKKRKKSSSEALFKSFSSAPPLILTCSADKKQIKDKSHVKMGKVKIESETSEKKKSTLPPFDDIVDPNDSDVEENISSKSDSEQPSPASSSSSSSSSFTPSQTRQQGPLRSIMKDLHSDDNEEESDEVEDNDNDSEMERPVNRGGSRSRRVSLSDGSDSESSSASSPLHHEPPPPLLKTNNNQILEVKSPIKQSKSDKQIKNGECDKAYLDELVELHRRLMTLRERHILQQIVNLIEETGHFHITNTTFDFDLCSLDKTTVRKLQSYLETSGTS
Bfl-1 A1 inh: inhibitors of the anti-apoptotic protein A1, read as caspase activation; caspase activation, % (test concentration not listed); 330,000 tested, 0.066% active; MEF A1-2A-BIM cells, Caspase-Glo 3/7 luminescence, 3 h; percent of clofoctol response, vehicle zero;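 active = over half of replicate activation scores above 10%, or exactly half above 10 with the replicate mean above 10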;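 also: wells of about 30 µL received 50 nL stock; many hits fall short of the cut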
Beta apoptosis: beta cell apoptosis inhibition. 300,000 tested, 0.8% active. INS-1E cytokine-induced death, ATP luminescence, 48 h; percent of positive-control rescue, neutral wells zero. protection from apoptosis, % (concentration not given with the values);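 active = all replicates at 75% or more, or half of them and the mean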;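 also: 0% = cytokine-treated negative control wells and 100% = positive control rescue; higher means more ATP so stronger rescue from cytokine killing; wells of about 40 µL received 100 nL stock; the first replicate is given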
Ecoli rRNA inh OD600: recorded beside Ecoli rRNA inh, whose call it bears; OD600 change, %; measured here: OD600 growth;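 optical density of the mix in the first replicate; 0 = DMSO median and -100 = no signal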
Ecoli rRNA inh RFP: also measured in Ecoli rRNA inh; calls as there; RFP signal change, %; measured here: RFP humanized mutant strains;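 first replicate; 0 = DMSO median and -100 = no signal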
Active calls of the source: *; i = inactive; x = no result given.

SMILES	Ecoli rRNA inh	Ecoli rRNA inh OD600	Ecoli rRNA inh RFP	FGF22 binding	E coli growth	UCH37 DUB inh	T cruzi inh	AF4-AF9 inh	Bfl-1 A1 inh	Beta apoptosis
Nc1ccc(N2CCN(c3cccc(Cl)c3)CC2)cc1	x	x	x	x	0.7	2.2	20	x	-0.3	5
CCOc1ccc2nc(NC(=O)C3CCCN(S(=O)(=O)c4c(C)noc4C)C3)sc2c1 (centres undefined)	-4	-3	1.6	i	0.75	2.2	x	2.9	-1.5	-4
CC(=O)c1ccc(N2CCN(S(=O)(=O)c3cc4[nH]c(=O)c(=O)[nH]c4cc3C)CC2)cc1	3	2	-0.1	i	0.68	2.8	5	-1.9	x	x
COC(=O)/C=C(\C)NC(=O)c1ccccc1Cl	x	x	x	x	0.63	1.2	-3	x	0.1	-4
O=C(NCCCn1ccnc1)c1ccc(Cl)cc1	4	5	-2.9	i	x	x	-8	0.3	0.6	2
CC(C)(C)n1nnnc1C(c1cccnc1)N1CCN(C(=O)c2ccco2)CC1 (centres undefined)	x	x	x	x	0.65	-0.8	-3	x	0.1	1
Cc1cc(C)c(NC(=S)NC(CO)(CO)CO)c(C)c1	19	6	1.2	i	0.64	2.1	6	-2.5	0.3	-1
COc1ccc(NC(C)=O)cc1NC(=O)c1ccc(Cl)cc1	7	8	0.7	i	0.67	1.6	-2	-0.8	1.0	-4
CCCc1nnc(SCC(=O)N2C(C)CCCC2C)n1CC (centres undefined)	18	23	-0.8	i	0.67	3.8	-1	0.9	2.3	4
O=C(CCCOc1ccccc1)NN1C(=O)NC2(CCCCC2)C1=O	5	12	-1.2	i	0.74	3.4	2	9.4	1.3	-1
COc1cc(C2Nc3ccccc3C(=O)N2c2ccccc2OC)ccc1O (centres undefined)	x	x	x	x	0.75	-164	5	x	-0.5	-17
O=C(COC(=O)C12CC3CC(CC(Cl)(C3)C1)C2)Nc1ccc2[nH]c(=O)[nH]c2c1	-10	-7	2.7	i	0.67	2.0	x	2.0	-0.4	-2
Nc1ccccc1Sc1ccc(C(F)(F)F)cc1[N+](=O)[O-]	-37*	-4.9*	-9.8*	i	0.66	4.5	-8	3.3	0.6	x
CCC(CC)c1nn2c(N)c(/C=C3\C(C)=Nc4ccccc43)c(=O)nc2s1	-9	-3	-3.6	i	0.7	1.3	-13	x	-1.0	-2
N#CCSc1nc2ccc(N3CCOCC3)cc2c(=O)n1CCc1ccccc1	x	x	x	x	0.67	-39	24	x	0.8	-9
O=C(Nc1ccccc1C(=O)O)c1cc(S(=O)(=O)N2CCOCC2)c(Br)s1	-6	-10	4.3	i	0.66	4.9	-13	-8.1	0.0	-15
CC1(C)Cc2cccc(OCC(O)CNCc3ccccn3)c2O1 (centres undefined)	x	x	x	x	0.74	-3.8	8	x	0.5	2
COc1ccc(/C(C)=N/N2C(C)CCCC2C)c(OC)c1 (centres undefined)	-1	9	-2.3	i	x	x	5	0.1	-0.1	-1
CC(C)(C)C(=O)NC1(C(F)(F)F)C(=O)Nc2c1c(=O)[nH]c(=O)n2Cc1ccco1 (centres undefined)	x	x	x	x	0.71	3.3	-17	x	0.3	-2
COCCN(C(=O)COC(=O)c1ccc(C)s1)c1c(N)n(Cc2ccccc2)c(=O)[nH]c1=O	4	6	-2.8	i	0.69	2.3	-12	-1.0	-2.4	-1
O=C(NCCc1ccccc1)C1CCN(Cc2cccc3ccccc23)CC1	14	7	2.1	x	0.65	1.6	18	-1.0	0.8	2
CC(C)Oc1ccc(CCNC(=O)C2CCC(=O)N(Cc3cccc(F)c3)C2)cc1 (centres undefined)	-5	-10	1.5	i	0.73	5.3	8	2.4	-0.3	1
COc1cc(OC)cc(C(=O)OC(C)C(=O)NC2CCCc3ccccc32)c1 (centres undefined)	5	8	-1.9	i	0.67	-1.8	x	-4.3	x	x
CC(C)CC1(C)NC(=O)N(CC(=O)Nc2ccc(F)c(F)c2F)C1=O (centres undefined)	9	11	-0.1	i	0.72	-0.2	x	-2.1	0.6	-1
CCN(CC(=O)NCc1cccs1)C(=O)c1ccc([N+](=O)[O-])o1	0	0	-2.1	i	0.65	1.7	63*	-0.3	0.3	-15
CN1CCc2c(C#N)c(N3CCCCC3)nc(N3CCOCC3)c2C1	x	x	x	x	x	-4.3	12	x	0.1	2
COc1ccc(CCNC(=O)CSc2ccccn2)cc1OC	13	15	0.3	i	0.69	-1.0	-9	-1.3	0.5	-2
CCOC(CNC(=O)CN1C(=O)COc2ccc(S(=O)(=O)N3CCOCC3)cc21)OCC	10	16	2.0	i	0.67	0.8	-9	-7.3	x	x
COc1ccc(OCc2cc(C(=O)N3CCCC(OC)C3)no2)c2ccccc12 (centres undefined)	-20	-59	0.8	i	x	x	12	2.7	0.1	-6
CCOc1cc(/C=C2\CCn3c2nc2cc(Cl)ccc2c3=O)ccc1O	3	-4	-0.5	i	0.69	-6.0	26	3.6	0.6	7
Cc1ccc(S(=O)(=O)N2CCC(C(=O)C3C(=O)CCCC3=O)CC2)cc1	4	1	-4.8	x	0.66	6.0	-20	-1.3	0.5	0
COc1ccc(CCNC(=O)c2ccc(-c3ccc([N+](=O)[O-])cc3)o2)cc1OC	-9	8	7.8	i	0.7	6.6	9	5.5	1.2	-1
COc1ccc(CN(C(=O)CNC(=O)c2ccco2)C(C(=O)NCC2CCCO2)c2ccc(OC)c(OC)c2)cc1 (centres undefined)	5	-1	-1.1	i	0.64	0.1	-5	-5.3	-0.1	-6
COc1cccc(C(=O)N2N=C(c3ccccc3)CC2(O)C(F)(F)F)c1 (centres undefined)	x	x	x	x	0.64	0.5	-21	x	0.1	3
COc1ccc(NC(=O)CSc2nccn2Cc2ccc(F)cc2)cc1	-16	-23	-4.5	i	0.66	0.8	5	2.0	-0.1	-5
CC(C)(C)c1ccc(C(=O)N2CCC(C(=O)c3ccccc3)CC2)cc1	-40	-60	-7.8	i	0.67	0.6	9	-0.7	0.1	x
COc1cc(C(O)C(=O)O)ccc1O (centres undefined)	x	x	x	i	0.69	3.0	x	-2.4	0.0	-1
O=C(CN1CCN(Cc2ccc3c(c2)OCO3)CC1)c1c[nH]c2ccccc12	x	x	x	x	0.68	0.5	12	x	2.7	0
COc1ccc(N(C(=O)c2cnccn2)C(C(=O)NC2CCCCC2)c2ccc(O)cc2)cc1 (centres undefined)	5	7	0.5	i	0.68	3.2	-1	-1.0	0.5	2
COc1ccc(-c2nnc(SCC(=O)NCc3cccs3)n2CC(C)C)cc1	x	x	x	x	0.75	-0.1	14	x	0.1	0
O=C(NC(=S)Nc1cc([N+](=O)[O-])ccc1O)C1CC1	-2	-5	0.0	i	0.64	11	-6	-0.6	-0.6	4
COc1ccc(C(C)NC(=O)Cc2cccs2)cc1OC (centres undefined)	-4	9	-6.5	i	0.71	2.0	-5	0.7	-0.1	0
Cc1ccc(-c2cc(C(=O)NCCCN3CCCC3)c3ccccc3n2)cc1C	-2	6	3.2	i	x	x	22	11	-0.8	8
COc1ccccc1NC(=O)C1=C(C)Nc2nnnn2C1c1cccc(Br)c1 (centres undefined)	x	x	x	x	0.69	7.6	9	x	-0.1	8
Cc1sc2nc(SCc3ccccc3)n(Cc3ccco3)c(=O)c2c1C	x	x	x	x	0.69	2.6	38	x	0.3	-2
Fc1cccc(Cc2noc(CN3CCCCC3c3ccccn3)n2)c1 (centres undefined)	-4	-1	-0.1	i	0.65	-2.3	1	-0.2	0.8	-8
Cc1ccc(NC(=O)CN2C(=O)C(C)Oc3ccccc32)nc1 (centres undefined)	6	-6	-4.0	i	0.72	2.8	-4	2.3	0.1	0
CCCOC(=O)c1ccc(-c2c(C)noc2-c2ccc(OC)cc2O)o1	x	x	x	x	0.71	-2.9	-14	x	0.4	4
CCn1c(=S)sc2c(=O)n(CC(=O)Nc3cccc(OC)c3)c(C)nc21	-28	-17	-1.6	i	0.68	6.6	-4	-5.1	-0.3	-13
COc1cccc(-n2c(CCn3nc(C)c([N+](=O)[O-])c3C)n[nH]c2=S)c1	13	7	-5.0	i	0.69	1.8	-11	3.5	-0.2	1
CC1CCCC(C(=O)O)N1C(=O)CCSSCCC(=O)N1C(C)CCCC1C(=O)O (centres undefined)	x	x	x	x	0.71	2.3	-7	x	-1.2	-4
Cc1cc(C(=O)Nc2cccc(S(=O)(=O)N3CCOCC3)c2)c2ccccc2n1	-4	-2	1.3	i	0.67	0.7	x	-2.7	0.3	7
Cc1cc(C(F)(F)F)n2nc(-c3cnn(C)c3C(F)(F)F)c(Cl)c2n1	x	x	x	x	0.7	4.1	-6	x	0.9	5
CCOc1ccc(S(=O)(=O)N2Cc3ccccc3CC2C(=O)NCCCn2ccnc2)cc1 (centres undefined)	x	x	x	x	0.67	5.2	16	x	-0.4	-9
COc1ccc(Cl)cc1C(=O)N1CCC2(CC1)CC(=O)c1ccccc1O2	-4	-11	1.0	i	0.69	-31	5	1.3	0.5	-1
CCOC(=O)N1CCN(c2ccc([N+](=O)[O-])cc2)CC1	x	x	x	x	0.64	8.4	-15	x	-0.1	3
COc1ccc([C@@H](C)NC(=O)c2ccc3oc(C(C)C)nc3c2)cc1	6	6	-1.9	i	0.68	0.5	8	2.1	-1.1	-2
CC1(C)CC(=O)C=C(NCCN2CCN(C(=O)Nc3ccc(Cl)cc3)CC2)C1	x	x	x	x	0.69	4.6	-2	x	-0.8	-4
COc1ccccc1NS(=O)(=O)c1ccc(C(=O)NCCCn2ccnc2)cc1	11	10	0.2	i	0.71	-0.7	x	0.4	0.8	-14
COc1cccc(-n2nc(C(=O)Nc3ccc4c(c3)OCO4)c3ccccc3c2=O)c1	x	x	x	x	0.77	2.6	10	x	0.3	-2
CCn1c(N)nc2c1c(=O)n(C)c(=O)n2C	-4	-4	2.2	i	0.67	2.0	-12	-7.0	-1.0	-2
COc1cccc(SCc2noc(C(=O)NCCN(C)C)c2C(=O)NCCN(C)C)c1	x	x	x	x	0.67	32*	19	x	-0.1	0
Cc1csc2cc(-c3cccc([N+](=O)[O-])c3)c(-c3cccc([N+](=O)[O-])c3)c[n+]12	x	x	x	x	0.7	1.6	-6	x	0.9	0

Whole records from above.
Entry for `COc1ccc(Cl)cc1C(=O)N1CCC2(CC1)CC(=O)c1ccccc1O2` → Ecoli rRNA inh = -4; Ecoli rRNA inh OD600 = -11; Ecoli rRNA inh RFP = 1.0; FGF22 binding = i; E coli growth = 0.69; UCH37 DUB inh = -31; T cruzi inh = 5; AF4-AF9 inh = 1.3; Bfl-1 A1 inh = 0.5; Beta apoptosis = -1
Entry for `COc1ccccc1NC(=O)C1=C(C)Nc2nnnn2C1c1cccc(Br)c1` (centres undefined) → Ecoli rRNA inh = x; Ecoli rRNA inh OD600 = x; Ecoli rRNA inh RFP = x; FGF22 binding = x; E coli growth = 0.69; UCH37 DUB inh = 7.6; T cruzi inh = 9; AF4-AF9 inh = x; Bfl-1 A1 inh = -0.1; Beta apoptosis = 8

The list is partial, so the mix of outcomes need not match the whole.
